Lassa entry inh: inhibitors of Lassa virus binding or cell entry; Lassa virus pseudotype entry inhibition, cell reporter; control for the full effect not named in the record; Potency, µM (doses to about 37.9 µM), inactives show at the highest dose activity change, negative = inhibition, actives largely listed as inhibitors; 300,000 tested, 1.2% active; AID 540256; active means well fitted inhibition curve with a large enough effect; inconclusive means small, poorly fitted or top-dose-only effect, or effect the other way; inactive means flat fitted curve, though single readings scatter; tested in HEK293 cells; further: on the % scale 0 is the no-effect control and ±100 the full control effect; nearly all actives have a fitted effect of over 50% in size; luciferase read-out
SARS PLpro yeast: blocks SARS-CoV papain-like protease in a yeast assay. S. cerevisiae expressing SARS-CoV PLpro, growth rescue; control for the full effect not named in the record. Potency, µM (top dose mostly 32.9 µM), without a hit: at the top dose activity, positive = growth rescue. 330,000 tested, 0.19% active. AID 485353; further: 0% is about no effect; nearly all actives have a fitted effect of over 55% in size; growth read by luminescence after 48 h
StopGo reporter: lowers the luciferase signal of an FMDV 2A StopGo reporter | human cells with a luciferase reporter of 2A StopGo recoding; control for the full effect not named in the record | Potency, µM (series often up to 57.9 µM), without a hit: at the top dose signal change, negative = less light | 410,000 tested, 1.2% active; active = well fitted falling curve with a large enough effect; inconclusive = small, poorly fitted or top-dose-only effect; inactive = no such curve, though single readings can be large or run the other way; tested in HEK293T cells; further: on the % scale 0 is the no-effect control and ±100 the full control effect; nearly all actives have a fitted effect of over 45% in size; luciferase light after 4 h
Marburg entry inh: Marburg virus entry inhibition; Marburg virus pseudotyped entry inhibition, cell reporter; control for the full effect not named in the record; about a third of the inactives were read at about 46 µM; Potency, µM (titrated, usually from 37.8 µM), for inactives: at the top dose activity change, negative = inhibition, actives largely listed as inhibitors; 300,000 tested, 1.8% active; active = well fitted inhibition curve with a large enough effect; inconclusive = small, poorly fitted or top-dose-only effect, or effect the other way; inactive = flat fitted curve, though single readings scatter; tested in HEK293 cells; about a fifth of its hits are not listed in these tables; further: on the % scale 0 is the no-effect control and ±100 the full control effect; luciferase read-out
RE007 growth inh: less growth of the S. pombe RE007 Vpr strain; Potency, µM (highest dose often 92.2 µM), without a hit: top-dose activity change, negative = less growth; 360,000 tested, 0.21% active; S. pombe RE007 Vpr strain, BacTiter-Glo ATP luminescence, 24 h; control for the full effect not named in the record; active = well fitted falling curve with a large enough effect; inconclusive = small, poorly fitted or top-dose-only effect; inactive = no such curve, though single readings can be large or run the other way;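 further: on the % scale 0 is the no-effect control and ±100 the full control effect; nearly all actives have a fitted effect of over 50% in size; the assay follows cell death caused by Vpr and the record does not say whether a fall means rescue or toxicity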
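Fission yeast RE007 carrying one integrated HIV-1 vpr copy, seeded at OD 0.01 in PMG+AL medium with 23 nL pinned compound. Grown 24 h at 30 degrees; viability read by BacTiter-Glo luminescence after 5 min.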
Cruzain noTriton: cruzain (T. cruzi) inhibition without detergent; P25779; purified cruzain, Z-FR-AMC fluorescence, no detergent; Potency, µM, inactives show max response, negative = inhibition, actives largely listed as inhibitors; 200,000 tested, 2.3% active; AID 1476; active means well fitted curve in the direction sought with a large enough effect; inconclusive means small, poorly fitted or top-dose-only effect, or another doubt; inactive means no such curve, though single readings can be large; an effect the other way counts as inactive or inconclusive;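 further: plate controls were enzyme without inhibitor for no effect and buffer without enzyme for full effect; nearly all actives have a fitted effect of over 40% in size; top concentration of the series not given in the record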
Target sequence (P25779 123-467 limits assumed): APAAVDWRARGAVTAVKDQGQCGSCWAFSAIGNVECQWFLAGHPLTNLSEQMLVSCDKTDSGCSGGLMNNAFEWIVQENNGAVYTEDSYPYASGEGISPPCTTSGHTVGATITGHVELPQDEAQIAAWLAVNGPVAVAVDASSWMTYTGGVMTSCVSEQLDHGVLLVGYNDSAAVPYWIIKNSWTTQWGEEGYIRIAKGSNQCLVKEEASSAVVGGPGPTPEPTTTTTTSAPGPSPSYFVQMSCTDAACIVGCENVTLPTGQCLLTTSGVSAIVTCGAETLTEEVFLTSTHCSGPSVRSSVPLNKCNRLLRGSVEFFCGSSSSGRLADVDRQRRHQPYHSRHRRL
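Purified cruzain at 1.5 nM, pre-incubated 15 min with compound at room temperature in 100 mM sodium acetate pH 5.5, 5 mM DTT, 0.00005% Triton X-100. Reaction started with 2 uM Z-FR-AMC; AMC fluorescence increase over 60 s gives rate.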
NS1 function inh: inhibitors of influenza NS1 protein function. AID 2326. S. cerevisiae slowed by influenza A NS1, growth recovery by OD600. Potency, µM (top dose mostly 46.1 µM), without a hit: at the highest dose activity, positive = more growth. 270,000 tested, 0.4% active; further: actives are rising curves; nearly all actives have a fitted effect of over 50% in size
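A cell-based growth assay was used: compounds that relieve NS1-induced slow growth of budding yeast raise OD600. Assay medium was yeast nitrogen base with ammonium sulphate and -URA supplement, pH 6.0, with 2% galactose.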
Cruzain inh Det: blocks cruzain activity in presence of Triton detergent. AID 1478. Potency, µM, without a hit: max response, negative = inhibition, most hits filed as inhibitors. 200,000 tested, 0.43% active. purified cruzain, Z-FR-AMC fluorescence, 0.01% Triton; active means well fitted curve in the direction sought with a large enough effect; inconclusive means small, poorly fitted or top-dose-only effect, or another doubt; inactive means no such curve, though single readings can be large; an effect the other way counts as inactive or inconclusive;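 further: plate controls were neutral wells for no effect and buffer without enzyme for full effect; nearly all actives have a fitted effect of over 40% in size; top concentration of the series not given in the record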
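Detergent-containing run (0.01% Triton X-100) in acetate buffer pH 5.5 with 5 mM DTT: enzyme at 1.5 nM final, 15 min compound preincubation at room temperature, then 2 uM Z-FR-AMC substrate. Activity taken as 60 s fluorescence increase at 360/450 nm.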
The depositor's hits bear a star; ? = inconclusive; . = not tested or not shown; [ ] = dose if it differs, or a comment. Unless noted, the call rests on the fitted dose curve; in most records, active means well fitted rising curve with a large enough effect; inconclusive means small, poorly fitted or top-dose-only effect; inactive means no such curve, though single readings can be large or run the other way. Potency means the concentration at half of the fitted maximal effect.

SMILES	Lassa entry inh	SARS PLpro yeast	StopGo reporter	Marburg entry inh	RE007 growth inh	Cruzain noTriton	NS1 function inh	Cruzain inh Det
CNc1ncc(C(=O)c2ccc(-c3ccccc3)cc2)s1	.	-3%	28%	.	-9%	.	-3%	.
COc1ccc(NS(=O)(=O)c2ccc(-c3coc(C)n3)cc2)c(OC)c1	-7%[46.1 µM]	0%	-21%	?	1%	.	-1%	.
CCCC(C(=O)NCCC(C)C)N(Cc1ccccc1)C(=O)c1snc(C(N)=O)c1N (configuration not stated)	.	0%	-15%	.	-15%	.	-28%	.
O=C(Nc1ccc(NC(=O)c2cccs2)cc1)c1ccc2ccccc2c1	10%[46.1 µM]	1%	1%	9%[46.1 µM]	4%	.	2%	.
CCCC(=O)NC(C)C(c1cccs1)N1CCN(C)CC1 (configuration not stated)	6%	2%	20%	18%	4%	-7%	8%	2.5%
CC1CC(C)(C)NC(=S)N1CCCC(=O)NCCc1ccc(Cl)cc1 (configuration not stated)	?	-2%	-3%	0%	4%	.	.	.
O=C(Nc1nc(COc2ccccc2)cs1)c1ccccc1F	8%	-3%	0%	?	-4%	-10%	2%	-4.8%
O=C(CN1C(=O)NC2(CCCC2)C1=O)OCc1ccc(F)cc1	1%	0%	-10%	-1%[46.1 µM]	-10%	.	.	.
COc1cccc(CN(C)C(=O)COc2ccc(C(=O)c3ccc(Cl)cc3)cc2)c1OC	?	-4%	-9%	3%[46.1 µM]	-9%	.	10%	.
O=c1oc2ccccc2c2c1nnn2CCO	9%	0%	-12%	18%[46.1 µM]	0%	.	0%	.
CCCC(=O)NC(c1ccc(OC)cc1)c1ccc2cccnc2c1O (configuration not stated)	?	-4%	-12%	?	-29%	.	-61%	.
CC1CCCN(C2(O)C(=O)Nc3ccc([N+](=O)[O-])cc32)C1 (configuration not stated)	.	1%	-4%	.	2%	.	-5%	.
O=C(/C=C/c1ccco1)NC(=S)Nc1cccc(C(=O)O)c1	28%[46.1 µM]	4%	-8%	-14%[46.1 µM]	2%	.	10%	.
COc1ccc(-c2nnn(CC(=O)N(CC(=O)NC3CCCC3)Cc3ccco3)n2)cc1OC	?	-1%	0%	7%[46.1 µM]	-6%	.	-6%	.
O=C(NC1CCCCC1)N(CCO)Cc1cc2cc3c(cc2[nH]c1=O)OCCO3	20%	8%	-13%	0%	22%[3.69 µM]	-6%	7%	-3.9%
COc1cccc(NC(=O)Nc2cccn(Cc3ccc(C)cc3)c2=O)c1	?	0%	?	?	0%	.	-1%	.
Cn1c(=O)n(CC(=O)O)c(=O)c2c1nc1n2CCCN1Cc1ccccc1	.	12%	0%	.	0%	.	-5%	.
COc1ccc(CCNC(=S)Nc2ccc(C(C)C)cc2)cc1	.	-15%	7%	.	?	.	-86%	.
Cc1onc(-c2c(Cl)cccc2Cl)c1NC(=O)NC1CCSC1 (configuration not stated)	7%[46.1 µM]	0%	2%	?	-14%	.	0%	.
COc1cccc(CNCc2ccco2)c1O	2%[46.1 µM]	12%	9%	13%[46.1 µM]	7%	.	?	.
CCc1cc2c(cc3c(=O)n(CC(=O)NCc4cccc(Cl)c4)nc(CC)n32)s1	.	.	5%	-21%[46.1 µM]	.	-14%	.	-1.1%
COC(=O)c1cc2oc(C)cc2n1Cc1c(C)cc(C)cc1C	.	.	-15%	15%[46.1 µM]	.	6%	.	-1.2%
S=C(Nc1ccccc1Cl)NC1CCN(Cc2ccccc2)CC1	-17%	-3%	0%	?	7%	11%	-2%	0.6%
CCOC(=O)c1cc(-c2cccs2)[nH]n1	18%	-6%	50%[activator]	-1%[46.1 µM]	11%	.	-7%	.
CC(C)(C)NCc1cc2ccccc2[nH]c1=O	-3%	4%	-16%	-9%	-18%	4%	4%	1.0%
COc1ccc(C(C)=O)cc1CSc1ccccn1	6%	0%	10%	10%	-3%	.	-7%	.
CN(C)N=C1c2cc(S(=O)(=O)N3CCOCC3)ccc2-c2ccc(S(=O)(=O)N3CCOCC3)cc21	4%	-23%	-12%	12%	-12%	?	6%	-8.8%
CCc1cc2c3c(c1)C(C)CC(C)(C)N3C(=O)/C2=C1\SC(=O)NC1=O (configuration not stated)	-21%	-1%	-25%	-1%[46.1 µM]	5%	.	8%	.
O=c1cc(CO)oc(C(Nc2cccc([N+](=O)[O-])c2)c2ccccn2)c1O (configuration not stated)	11%	17%	-8%	0%	-9%	-4%	-7%	-13%
CC(Cc1ccccn1)NC(=O)c1ccc(OC2CCN(Cc3ccccn3)CC2)cc1 (configuration not stated)	-11%	14%	-13%	?	-11%	.	0%	.
Cc1nc2cc(C(=O)NCCN3CCOCC3)ccc2n1-c1ccc(F)cc1F	-6%	5%	-11%	0%	7%	-9%	-5%	-0.6%
O=C(Nc1nc2ccccc2c(=O)[nH]1)c1ccccc1SCc1ccccc1	-1%	0%	-16%	-25%	1%	.	.	.
COc1ccc(S(=O)(=O)N2CCN(C(c3ccccc3)c3ccccc3)CC2)cc1NC(C)=O	.	1%	-5%	.	1%	.	3%	.
CN(C)c1ccc(/C=C2/C=C(c3ccc4c(c3)CCCC4)OC2=O)cc1	.	0%	-15%	.	2%	.	1%	.
COc1cc(NC(=O)CS(=O)(=O)c2ccc(C)cc2)cc(OC)c1OC	1%	4%	-24%	-8%[46.1 µM]	20%	14%	4%	4.3%
O=[N+]([O-])c1cccc(/C=N/Nc2nc(N3CCOCC3)nc(N3CCOCC3)n2)c1	-1%	11%	-21%	?	24%	-3%	4%	-3.2%
CCN1CCN(Cc2ccc(NC(=O)Nc3ccc(OC)cc3)cc2)CC1	.	5%	27%	.	-16%	9%	2%	-6.3%
Cc1ccc(SCCNC(=O)CN2C(=O)c3ccccc3S2(=O)=O)cc1	9%	-1%	22%	2%	-1%	-1%	-3%	-1.7%
CCS(=O)(=O)c1ccc2oc(SCC(=O)NCCc3ccc(OC)cc3)nc2c1	-3%	0%	0%	-19%[46.1 µM]	-2%	.	-5%	.
Fc1cccc(/C=N/NC(=S)Nc2ccccc2Cl)c1	0%	-24%	28%	-7%	-16%	?	10%	-7.0%
NNC(=O)c1cc2ccccc2[nH]1	?	-2%	-6%	?	-24%	.	.	.
CC(=O)c1c(C)oc2ccc(NS(=O)(=O)c3ccc(O)c(C(=O)O)c3)cc12	-1%	1%	0%	-12%	10%	-5%	-25%	-7.0%
O=C([C@H](O)c1ccccc1)N1CCC[C@H]1CO	6%	11%	-7%	-4%	6%	-1%	-9%	-1.7%
COc1ccc(NC(=S)NC(=O)c2cncc(Br)c2)c(OC)c1	5%	-2%	0%	?	-9%	.	4%	.
CN(C)CCCN=Cc1c(O)n(Cc2ccccc2)c(=O)c2ccccc12	6%	-2%	14%	?	-10%	-26%	-4%	-5.2%
CCN(C(=O)c1cccnc1)c1ccccc1	22%	.	26%	22%[46.1 µM]	-5%	10%	8%	3.4%
COc1ccc(CC(=O)N(CCN(C)C)CC2CCCN(Cc3ccccc3F)C2)cc1 (configuration not stated)	.	3%	-13%	.	17%	.	23%	.
COC(=O)c1ccc(NC(=O)C2CC2)o1	-2%	-2%	-13%	22%	15%	-2%	-3%	0.2%
O=C(/C=C/c1ccc(Cl)cc1)N1CCOCC1	.	0%	39%[activator]	.	-9%	.	27%	.
CSc1cccc(NC(=O)CSc2ccc(Cl)cc2)c1	?	-5%	-2%	?	?	-1%	-13%	-2.5%
COc1ccc(-c2cc(C(=O)Nc3ccc(Cl)cc3Cl)c3ccccc3n2)cc1OC	-8%	-20%	-22%	?	?	?	-3%	-6.1%
Cc1ccc(Nc2ncc(C(=O)N3CCN(c4ccc(F)cc4)CC3)c3ccccc23)cc1Cl	-19%[46.1 µM]	.	-23%	?	.	?	.	-7.7%

Filtered by structure: the entries above containing a Cl atom.
SMILES	Lassa entry inh	SARS PLpro yeast	StopGo reporter	Marburg entry inh	RE007 growth inh	Cruzain noTriton	NS1 function inh	Cruzain inh Det
CC1CC(C)(C)NC(=S)N1CCCC(=O)NCCc1ccc(Cl)cc1 (configuration not stated)	?	-2%	-3%	0%	4%	.	.	.
COc1cccc(CN(C)C(=O)COc2ccc(C(=O)c3ccc(Cl)cc3)cc2)c1OC	?	-4%	-9%	3%[46.1 µM]	-9%	.	10%	.
Cc1onc(-c2c(Cl)cccc2Cl)c1NC(=O)NC1CCSC1 (configuration not stated)	7%[46.1 µM]	0%	2%	?	-14%	.	0%	.
CCc1cc2c(cc3c(=O)n(CC(=O)NCc4cccc(Cl)c4)nc(CC)n32)s1	.	.	5%	-21%[46.1 µM]	.	-14%	.	-1.1%
S=C(Nc1ccccc1Cl)NC1CCN(Cc2ccccc2)CC1	-17%	-3%	0%	?	7%	11%	-2%	0.6%
Fc1cccc(/C=N/NC(=S)Nc2ccccc2Cl)c1	0%	-24%	28%	-7%	-16%	?	10%	-7.0%
O=C(/C=C/c1ccc(Cl)cc1)N1CCOCC1	.	0%	39%[activator]	.	-9%	.	27%	.
CSc1cccc(NC(=O)CSc2ccc(Cl)cc2)c1	?	-5%	-2%	?	?	-1%	-13%	-2.5%
COc1ccc(-c2cc(C(=O)Nc3ccc(Cl)cc3Cl)c3ccccc3n2)cc1OC	-8%	-20%	-22%	?	?	?	-3%	-6.1%
Cc1ccc(Nc2ncc(C(=O)N3CCN(c4ccc(F)cc4)CC3)c3ccccc23)cc1Cl	-19%[46.1 µM]	.	-23%	?	.	?	.	-7.7%

Screening data from PubChem BioAssay.
